Screening data from PubChem.
UCH37 inh: inhibitors of human UCH37 deubiquitinase, primary screen, biochemical, Ub-AMC cleavage, fluorescence | 0.33% of 330,000 active | inhibition, % (test concentration not listed) | Ubiquitin carboxyl-terminal hydrolase isozyme L5 (Homo sapiens), Q9Y5K5 | purified proteasome/UCH37;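 active = mean of two replicates above 20%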;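 also: 0% = compound-free wells with enzyme and 100% = wells lacking proteasome; stock transfer was 100 nL into about 20 µL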
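Test system – human UCH37 enzyme supplied as purified proteasome complex · Incubation – 30 min preincubation with enzyme, 25 min cleavage at room temperature · Detection – AMC fluorescence from Ub-AMC cleavage, excitation 355 nm, emission 460 nm · Benchmarks – no-proteasome wells (full inhibition) and compound-free wells (no inhibition)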
Beta apoptosis: inhibitors of cytokine-induced beta cell apoptosis, primary screen, luminescence; INS-1E cytokine-induced death, ATP luminescence, 48 h; percent of positive-control rescue, neutral wells zero; protection from apoptosis, % (no concentration beside the values); 0.8% of 300,000 active; AID 435005, 2010;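 active = all replicates at 75% or more, or half of them and the mean; inconclusive = half reach 75% but not the mean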;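 also: 0% = cytokine-treated negative control wells and 100% = positive control rescue; higher means more ATP so stronger rescue from cytokine killing; wells of about 40 µL received 100 nL stock; the first replicate is given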
T cruzi inh: inhibitors of intracellular T. cruzi growth, primary screen, luminescence, NIH3T3 host cells | 1.4% of 300,000 active | T. cruzi beta-gal in NIH3T3, 90 h | inhibition, % (no concentration beside the values);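 active = mean inhibition across valid replicates above about 55%, limit read from the data; inconclusive = mean below that limit but half or more replicates reach it; inactive = mean below it, under half of replicates reach it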;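 also: signal also drops with host cell toxicity which is not excluded here; 0% = plate median of DMSO wells and 100% = zero luminescence signal; higher percent means less beta-gal luminescence so fewer parasites; stock transfer was 50 nL into about 50 µL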
A1 inh: caspase 3/7 activation in MEF A1-2A-BIM cells, primary screen, A1 inhibitor project, cell-based, luminescence, HTS. Caspase-Glo 3/7 luminescence, 3 h; percent of clofoctol response, vehicle zero. caspase activation, % (concentration not given with the values). 0.066% of 330,000 active;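 active = over half of replicate activation scores above 10%, or exactly half above 10 with the replicate mean above 10; inconclusive = replicate mean below 10 yet half the replicates above 10; inactive = over half of replicates below 10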;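 also: wells of about 30 µL received 50 nL stock; many hits fall short of the cut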
LANA-H2A inh: blockers of LANA interaction with H2A/H2B – biochemical, FP readout, HTS, primary screen; cell-free LANA-H2A/H2B peptide, fluorescence polarization; inhibition, % (concentration not given with the values); 0.6% of 320,000 active; AID 2629, 2010; in the data active = inhibition mostly above about 10%, no sharp cut-off; inactive = mostly below about 6.7%;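 also: stock transfer was 7.5 nL into about 10 µL; 0% = median of vehicle wells and 100% = median of positive control wells; one replicate is shown; the record names a cut of 25% in any replicate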
Target sequence (Q9QR71 whole entry, looked up): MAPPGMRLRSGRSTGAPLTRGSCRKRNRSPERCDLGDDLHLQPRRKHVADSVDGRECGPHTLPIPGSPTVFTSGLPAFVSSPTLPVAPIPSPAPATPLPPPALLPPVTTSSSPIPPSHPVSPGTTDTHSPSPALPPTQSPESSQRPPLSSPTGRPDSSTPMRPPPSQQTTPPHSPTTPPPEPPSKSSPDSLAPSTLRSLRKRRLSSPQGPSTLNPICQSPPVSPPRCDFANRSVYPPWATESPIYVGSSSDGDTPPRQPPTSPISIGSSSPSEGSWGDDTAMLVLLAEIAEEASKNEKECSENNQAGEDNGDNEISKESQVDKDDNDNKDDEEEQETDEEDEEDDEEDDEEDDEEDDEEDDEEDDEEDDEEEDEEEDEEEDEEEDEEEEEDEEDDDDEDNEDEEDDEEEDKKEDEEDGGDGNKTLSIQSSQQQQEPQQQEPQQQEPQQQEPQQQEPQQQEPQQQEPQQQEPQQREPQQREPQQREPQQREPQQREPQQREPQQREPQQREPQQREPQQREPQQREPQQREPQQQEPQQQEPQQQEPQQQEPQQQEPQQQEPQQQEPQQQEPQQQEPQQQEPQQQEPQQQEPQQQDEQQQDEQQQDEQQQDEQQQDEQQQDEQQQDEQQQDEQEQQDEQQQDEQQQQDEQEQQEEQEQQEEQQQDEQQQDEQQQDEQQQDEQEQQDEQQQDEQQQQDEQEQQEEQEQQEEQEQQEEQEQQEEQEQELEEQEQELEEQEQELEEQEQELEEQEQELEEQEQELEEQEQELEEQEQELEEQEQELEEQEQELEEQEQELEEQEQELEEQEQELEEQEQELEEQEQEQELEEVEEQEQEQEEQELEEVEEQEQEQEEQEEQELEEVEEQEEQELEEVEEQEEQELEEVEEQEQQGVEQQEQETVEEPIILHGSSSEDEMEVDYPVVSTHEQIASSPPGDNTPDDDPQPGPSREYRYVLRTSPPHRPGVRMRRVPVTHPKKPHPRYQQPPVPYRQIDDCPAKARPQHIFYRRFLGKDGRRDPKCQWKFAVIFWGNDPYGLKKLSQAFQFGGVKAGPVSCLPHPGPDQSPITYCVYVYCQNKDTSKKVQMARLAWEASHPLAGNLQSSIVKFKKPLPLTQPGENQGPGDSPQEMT
RanGTP-Imp inh: inhibitors of RanGTP-importin-beta interaction, primary screen, biochemical, FRET, CFP-Ran, YFP-importin-beta, homogeneous | 1.1% of 300,000 active | Ran GTPase (GTP-bound) - importin-beta complex | cell-free CFP-Ran/YFP-importin-beta FRET ratio | inhibition, % (test concentration not listed);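 active = most replicates above 15%; inconclusive = exactly half above 15%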;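 also: 0% = DMSO wells and 100% = Ran loaded with GDP instead of GTP; wells of about 40 µL received 100 nL stock; the first replicate is given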
Beta2AR agonist: beta2AR agonists driving receptor internalization, primary screen, cell-based, FAP fluorogen, flow cytometry. AID 504454, 2011. Am2.2-beta2AR cells; reference of the scale not given here. response, % (no concentration beside the values). 0.43% of 340,000 active;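 active = response above a set limit, near 3 SD of response in nonfluorescent compounds, cut at about 42% in these data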;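 also: stock transfer was 100 nL into about 11 µL; a reference agonist was the positive control; negative values mostly stem from fluorescent compounds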
Calb FLC: C. albicans growth inhibition with fluconazole, primary screen, CaCi-2 strain, Alamar Blue fluorescence; C. albicans CaCi-2 (fluconazole-resistant clinical isolate) + fluconazole, 48 h; growth inhibition, % (test concentration not listed); 0.57% of 300,000 active; AID 1979, 2009;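 active = most replicates above 75%; inconclusive = exactly half above 75%; inactive = most below 75%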;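 also: all wells also contain fluconazole at 8 µg/ml as a sub-toxic cotreatment; 0% = median of DMSO wells and 100% = median of geldanamycin control wells; wells of about 8 µL received 7.5 nL stock; the first replicate is given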
The depositor's hits bear a star; u = inconclusive; x = no result given.

SMILES	UCH37 inh	Beta apoptosis	T cruzi inh	A1 inh	LANA-H2A inh	RanGTP-Imp inh	Beta2AR agonist	Calb FLC
CC(=O)N1CCN(C(=O)COc2ccc(Br)cc2)CC1	5.7	-4	-6	0.3	0.4	-4.1	4	x
Cc1ccc(C)c(N(CC(=O)NC2CCCCC2)C(=O)c2csnn2)c1	1.8	-3	-9	-0.2	-4.3	7.1	4	-3
CCCCNC(=O)NNC(=O)COc1cc(C)cc(C)c1	-0.6	1	-5	0.7	7.6	3.1	-4	6
Cc1cc2c(cc1S(=O)(=O)N1CCc3ccccc31)NC(=O)CO2	2.4	x	12	0.1	-1.4	1.7	6	2
CCOc1ccc(-c2nn(-c3ccccc3)cc2/C=C(\C#N)S(=O)(=O)c2ccccc2)cc1C	-159	3	-7	0.7	0.2	-1.9	6	-4
COCCC(=O)N1CCC(Oc2ccc(C(=O)NC3Cc4ccccc4C3)cc2)CC1	0.8	-2	-27	-0.9	2.0	1.8	-3	-7
COC(=O)C1=CN(c2ccc(OC)cc2)C=C(C(=O)OC)C1c1ccc(C)c([N+](=O)[O-])c1	3.9	0	42	0.7	-0.2	-1.1	-7	-14
CCOc1cc(/C=N/NC(=O)c2ccncc2)ccc1OC(=O)c1ccc([N+](=O)[O-])cc1	x	2	-5	0.6	-0.5	-0.3	-1	1
COc1ccc(CC(=O)OCC(=O)Nc2c(C)n(C)n(-c3ccccc3)c2=O)cc1OC	-0.3	-1	x	0.8	1.9	x	-8	x
CC(C)CC(NC(=O)COc1ccccc1)C(=O)O (configuration not stated)	0.7	-9	3	1.2	-4.4	-3.4	0	-12

Rewritten with each value named: entries from further up
CCCCNC(=O)NNC(=O)COc1cc(C)cc(C)c1
  UCH37 inh: -0.6; Beta apoptosis: 1; T cruzi inh: -5; A1 inh: 0.7; LANA-H2A inh: 7.6; RanGTP-Imp inh: 3.1; Beta2AR agonist: -4; Calb FLC: 6
Cc1ccc(C)c(N(CC(=O)NC2CCCCC2)C(=O)c2csnn2)c1
  UCH37 inh: 1.8; Beta apoptosis: -3; T cruzi inh: -9; A1 inh: -0.2; LANA-H2A inh: -4.3; RanGTP-Imp inh: 7.1; Beta2AR agonist: 4; Calb FLC: -3

Later entries
SMILES	UCH37 inh	Beta apoptosis	T cruzi inh	A1 inh	LANA-H2A inh	RanGTP-Imp inh	Beta2AR agonist	Calb FLC
O=C(Nc1cc(Br)ccc1O)c1cc(-c2ccccc2)on1	3.9	x	-6	x	x	0.2	4	18
COc1ccccc1OCCC(=O)OCC(=O)NC(C)c1ccccc1 (configuration not stated)	4.8	2	-11	0.6	0.0	0.9	1	-25
CCOc1ccc(C(=O)Nc2ccccc2OC(F)F)cc1	4.1	0	3	-1.0	-1.1	0.9	-4	-1
O=C(NCCNc1ccc([N+](=O)[O-])cc1C(F)(F)F)c1ccc(F)cc1	6.9	4	12	-0.2	-1.4	6.7	-8	16
COc1ccc(S(=O)(=O)N2CCSC2)cc1C	3.0	-5	8	0.9	0.0	-0.3	11	3
Cc1ccccc1Nc1nc(N)c2ccccc2n1	-3.6	25	28	-12	-9.0	-2.2	12	7
Cc1ccccc1-c1noc(CNC(=O)c2ccco2)n1	4.3	-3	-9	-0.3	-5.5	1.8	-1	-13
O=C(CCC(=O)N1CCN(c2ccccn2)CC1)c1ccc(Cl)s1	2.3	-2	x	-0.3	-0.7	x	7	x
CCOC(=O)[C@H]1[C@H]2COc3ccc(Br)cc3[C@@H]2N2C(=O)CN(Cc3ccc(OC)cc3)C(=O)[C@@]12C	2.2	11	x	1.3	0.5	x	7	x
CCOc1ccccc1OCCCC(=O)Nc1cc(S(=O)(=O)N2CCOCC2)ccc1OC	0.2	6	x	-0.6	-2.7	x	-4	x
CC1CCC(NC(=O)C(=O)Nc2ccc3c(c2)OCO3)CC1 (configuration not stated)	5.3	2	5	-7.6	-2.4	-1.3	4	-6
CC(=O)C1=C(O)C(=O)N(CCc2c[nH]c3ccccc23)C1c1ccc(O)cc1 (configuration not stated)	7.8	-7	14	0.2	0.3	-3.1	-2	-11
CCc1csc(CCNC(=O)C2CCC(=O)N(CCOC)C2)n1 (configuration not stated)	-0.1	-4	-5	-0.2	1.3	-2.1	7	-4
CCC(C)NCCCOc1c(C)cc(C)cc1Br (configuration not stated)	6.1	8	9	0.5	1.3	3.9	31	-48
CCOc1ccccc1C(=O)NCC(=O)NCC(C)(C)N1CCOCC1	-0.5	-4	x	0.5	-1.3	x	1	x
COc1ccc(NC(=O)CN2CCN(CC(=O)Nc3ccc(F)cc3)CC2)c(OC)c1	-1.0	-3	-1	0.0	2.4	-0.8	-6	17
CCC(=O)OCCNc1cc(SCCC(=O)OC)c2nonc2c1[N+](=O)[O-]	14	6	5	-0.3	-0.7	-0.9	77*	-13
Nc1cc(=O)[nH]c(SCCNS(=O)(=O)c2ccccc2)n1	-6.2	0	-5	0.2	4.4	8.1	-7	1
CCn1nc(C(=O)OCC(=O)c2c[nH]c3ccccc23)c2ccccc2c1=O	0.9	-2	0	0.2	9.4	6.3	-5	0
CCOC(=O)Cn1cnc2c(cnn2-c2ccc(Cl)cc2)c1=O	0.2	-2	-12	-0.1	2.0	-0.2	-1	38
Cc1ccc[n+](CC2OCc3ccccc3CO2)c1	0.6	2	-4	0.7	-5.4	1.9	-4	5
S=c1[nH]nc(-c2cc(-c3ccco3)[nH]n2)n1-c1ccccc1	1.6	-5	-3	-0.2	2.0	-1.5	-1	9
O=C(CSc1nc2ccccc2[nH]1)NCCN1CCCCC1	2.3	-5	3	0.8	-2.9	-2.2	-7	2
CCOC(=O)c1ccc(NC(=O)CC2SC3=NCCN3C2=O)cc1 (configuration not stated)	0.3	-1	3	-0.2	2.9	-5.7	4	3
Cc1sc2ncnc(N=Nc3c(O)[nH]c4ccccc34)c2c1C	x	4	0	0.1	x	-14	-26	57
CCCN(S(=O)(=O)c1ccc(OCC)cc1)S(=O)(=O)c1cccs1	-4.4	x	18	-0.4	0.8	1.0	8	-1
Oc1c(N=Nc2ccc(F)cc2)ccc2ccccc12	x	8	9	-10	-6.7	-0.8	5	0
CN(CCc1cnn(C)c1)Cc1nc(Cc2ccccc2)no1	3.2	9	-8	0.0	3.8	5.3	5	9
CC(Oc1ccccc1)C(=O)N1CCC2(CC1)Oc1ccc(F)cc1C(=O)C21CC(c2ccccc2)=NO1 (configuration not stated)	-0.8	2	-16	0.3	-3.2	-2.3	-8	3
Cn1cc(S(=O)(=O)NCc2ccc3c(c2)OCO3)c(C(F)(F)F)n1	6.5	0	-5	-0.8	1.8	-4.2	-4	-17
CC(C)Nc1nc(N(c2ccccc2)c2ccccc2)nc(-n2ccnc2)n1	2.9	-9	x	0.8	-0.9	x	3	x
Cc1ccc([C@@H]2[C@@H]3C(=O)N(c4ccccc4)C(=O)[C@@H]3[C@]3(C)C(=O)N(Cc4ccccn4)CC(=O)N23)o1	2.4	-2	-13	0.5	9.1	-3.9	3	-2
COc1ccc(C(=O)CC2OC(=O)c3c2ccc(OC)c3OC)cc1 (configuration not stated)	1.8	-3	-6	0.0	8.9	-5.0	3	-3
Cc1cccc(NC(=S)NNC(=S)NC2CCCCC2)c1C	4.3	13	18	-1.0	1.2	6.8	-4	-6
CCN(Cc1cccs1)C(=O)CN1C(=O)NC2(CCCc3ccccc32)C1=O (configuration not stated)	3.6	3	x	0.2	-2.1	x	0	x
O=C(c1ccc(N2CCCC2)c([N+](=O)[O-])c1)N1CCN(S(=O)(=O)c2ccc(Cl)cc2)CC1	0.8	11	26	-0.9	-4.8	3.5	-7	-3
O=C(Cn1cc([N+](=O)[O-])ccc1=O)N1CCCc2ccccc21	4.3	1	-14	0.9	-0.2	-0.1	-3	-5
O=C(c1ccco1)N1N=C2CCCCCC2C1(O)C(F)(F)F (configuration not stated)	-1.3	-5	-2	0.3	-2.0	-0.3	6	-2
CCOc1ccc(-c2nn(-c3ccccc3)cc2/C=C2\SC(N)=NC2=O)cc1C	-25	10	35	2.8	1.4	2.7	59*	3
CC(=O)N=c1sc2ccccc2n1C	1.7	3	7	0.9	1.1	0.1	0	-3
Cn1cnnc1SCc1ccccc1[N+](=O)[O-]	0.7	-4	-15	-0.6	2.9	0.6	-8	-5
CCC(C(=O)Nc1ccccc1C(=O)N1CCOCC1)N1C(=O)c2ccccc2C1=O (configuration not stated)	0.3	-7	-4	-0.1	-4.8	3.2	-2	-6
Cc1cc(NC(=O)c2cc([N+](=O)[O-])cc([N+](=O)[O-])c2C)no1	2.6	2	25	-0.1	-1.2	3.5	-2	12
S=C(NNc1ccc2ccccc2c1)NC1CCCCC1	-1.7	-6	16	0.0	-0.6	3.3	-11	11
O=C(CSc1cc(Cl)ccc1Cl)NCC(=O)Nc1ccc(F)c(F)c1F	x	-5	-4	0.1	0.3	-1.0	-14	5
Clc1ccccc1Sc1cnc2ccccc2n1	5.0	-6	-2	-0.4	-0.2	1.1	-9	2
O=C1CCCC2=C1C(c1ccc(O)c(O)c1)c1c(ccc3ncccc13)N2 (configuration not stated)	x	-5	-21	-0.1	0.6	5.5	-7	-3
N#CCC(CNc1ncc(C(F)(F)F)cc1Cl)OC(=O)c1c(F)cccc1F (configuration not stated)	4.9	4	-23	-0.1	-1.1	0.7	-18	4
O=C(CCc1nnc(CCCc2ccccc2)o1)N1CCCCCC1	5.9	-3	-15	-1.3	8.0	3.8	-6	-32
O=C(COC(=O)c1ncc(Cl)c(Cl)c1Cl)Nc1cccnc1Cl	2.1	-2	-28	0.0	5.7	3.1	9	-4
Next results follow:
SMILES	UCH37 inh	Beta apoptosis	T cruzi inh	A1 inh	LANA-H2A inh	RanGTP-Imp inh	Beta2AR agonist	Calb FLC
COc1ccc(-n2ncc3c(NCc4cccs4)ncnc32)cc1	0.5	-5	16	-1.3	-5.9	2.6	-9	13
CN(CCc1ccccn1)C1CCCN(S(=O)(=O)c2ccccc2Cl)C1 (configuration not stated)	-1.5	-3	30	-0.1	0.4	2.9	-11	-18
CCCCNC(=O)Oc1cc(CCl)on1	x	-3	-31	0.9	2.7	u	x	-16
CC1=C(C(=O)NC(C)c2ccccc2)C2(CCC(C)CC2)OC1=O (configuration not stated)	1.2	3	3	0.2	-6.1	-1.5	-1	2
O=C(Cc1cc(=O)[nH]c(=O)[nH]1)N1CCC(Cc2ccccc2)CC1	6.8	x	-7	0.8	5.9	-4.1	19	-2
O=C(CSC1=Nc2ccccc2C2=NC(CC(=O)N3CCN(c4ccccc4)CC3)C(=O)N12)NCC1CCCO1 (configuration not stated)	1.6	4	-9	2.1	0.7	0.7	-9	u
O=C(NCc1ccccc1)c1nc(-c2cccs2)no1	0.1	-3	-7	0.3	-0.3	x	9	x
O=C(CC1Nc2c3ccccc3nc(=S)n2C1=O)NC1CCCCC1 (configuration not stated)	-2.6	-4	0	-0.6	3.1	-2.2	x	-18
CCn1c(SCC(=O)NC2CC2)nnc1-c1ccccc1OC	5.1	-4	1	0.3	2.1	2.9	-4	-17
